Assay outcomes: PubChem BioAssay, ICCB-Longwood Screening Facility, Harvard Medical School
MgrA DNA FP: modulators of Staphylococcus aureus MgrA DNA binding | 84,000 compounds, 0.13% hits | fluorescence polarization | inhibition, %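 (about 10 µg/mL by stock and volumes)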;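 active = above 50% in either of two replicates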;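 also: 0% = protein plus DNA without compound and 100% = DNA alone without protein; higher means less MgrA bound to DNA so lower polarization; one replicate is shown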
Sa helicase inh: blocks Staphylococcus aureus DNA helicase; AID 485395; purified S. aureus helicase, fluorescence unwinding assay; about half of the hits fall short of the stated cut; inhibition, %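 (tested at about 80 µM)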; 120,000 compounds, 0.05% hits;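 active = both duplicates at 50% or more, or one of them with a favoured structure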;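 also: 0% = mean of negative control wells and 100% = mean of positive control wells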
Numbers without * were called inactive; nt = no result given; & = joins results of further samples. Only part of the results is shown (hit frequency here may not be typical).

canonical_smiles | MgrA DNA FP | Sa helicase inh
NNC(=O)C1C(=O)NCC1c1ccccc1 (stereo unspecified) | -2.2 | 7
CCCOc1ccc(C2Nc3ccccc3NC3=C2C(=O)CC(c2ccc(OC)cc2)C3)cc1OC (stereo unspecified) | -0.9 | nt
CCOC(=O)N1CCN(C(=O)CSc2nnc(COc3ccc(Cl)cc3)o2)CC1 | 0.1 | -1
Cc1c(NC(=O)CCN2C(=O)/C(=C\c3ccc(Cl)cc3)SC2=S)c(=O)n(-c2ccccc2)n1C | 0.8 | nt
Cc1cc(C(c2nnnn2Cc2ccccc2)N2CCOCC2)c(C)n1-c1ccc2c(c1)OCO2 (stereo unspecified) | -0.3 | 1
COCCn1c(O)c(C=NCCCCCc2nc(-c3ccc(C)cc3)no2)c(=O)[nH]c1=S | nt | -7
Cc1cc(/C=C/C(=O)NCCc2ccccn2)c(C)n1Cc1ccco1 | nt | -13
CC(C)CC(=O)Nc1c2c(nn1-c1ccc(Cl)cc1)CSC2 | nt | 17
COC(=O)c1cc(O)cc(C(=O)OC)c1 | nt | -19
O=C(CCSCc1cnn(-c2ccccc2)c1-n1cccc1)NCc1ccc2c(c1)OCO2 | 0.5 | 2
CCCCn1c(CNC(=O)c2ccc(OC)cc2)nnc1SC(C)C | nt | -15
O=C1CN(C(=O)C23CC4CC(CC(C4)C2)C3)CC(=O)N1CCc1ccccc1 | 0.4 | -14
O=C(O)c1cc(NN=C2CCCC2)ccc1Cl | nt | 18
CCOC(=O)Cn1c(=O)oc2cc(S(=O)(=O)NCc3cccc(OC)c3)ccc21 | 4.0 | 6
O=C(CC1CCCCC1)Nc1ccc2c(c1)OCCO2 | 0.8 | 15
Cc1nonc1OCC(C)(N)COc1nonc1C | -2.2 | -2
CCOC(=O)CSc1nnnn1-c1ccccc1 | -1.9&0.8 | 13
Cc1ccc2nc(-c3ccc(Cl)c(NC(=O)c4cccc(OCc5ccccc5)c4)c3)oc2c1 | -2.0 | nt
O=C(Oc1ccccc1)Oc1ccc2c(c1)oc(=O)c1ccccc12 | 1.0 | 7
O=C1CC(C(F)(F)F)=NN1c1ccccc1 | 0.7 | nt
O=C(OCC(=O)N1CCOCC1)c1ccc(-c2ccccc2)cc1 | nt | 9
CC1=CC2=NC(C(F)(F)F)(C(F)(F)F)NC(=O)N2C=C1 | -1.6 | -3
Nc1cc(=O)[nH]c(SCC(=O)N(C2CCCCC2)C2CCCCC2)n1 | nt | -22
COCCNC(=O)c1cc(-c2ccccc2F)no1 | nt | 9

A different layout for part of the listing above.
Below each SMILES: MgrA DNA FP, Sa helicase inh
COCCn1c(O)c(C=NCCCCCc2nc(-c3ccc(C)cc3)no2)c(=O)[nH]c1=S
  nt, -7
Cc1nonc1OCC(C)(N)COc1nonc1C
  -2.2, -2
NNC(=O)C1C(=O)NCC1c1ccccc1 (stereo unspecified)
  -2.2, 7
O=C(CCSCc1cnn(-c2ccccc2)c1-n1cccc1)NCc1ccc2c(c1)OCO2
  0.5, 2

Next section
canonical_smiles | MgrA DNA FP | Sa helicase inh
O=C1NC(=O)C(c2ccccc2)c2ccccc21 (stereo unspecified) | 6.6 | nt
O=C(CCn1c(SCC(=O)NC2CCCC2)nc2ccccc2c1=O)NC1CCCCC1 | nt | 15
COc1ccccc1-c1c(C)nn2c(NCCCN3CCCC3=O)cc(C)nc12 | 0.3 | 21
CCOC(=O)c1c(C)oc(-c2ccc(Cl)cc2)c1S(=O)(=O)NCc1ccccc1 | -1.2 | nt
Cc1c(-c2ccnc(N)n2)cnn1-c1ccccc1 | -0.9 | nt
O=C(Nc1ccc(SC(F)(F)F)cc1)C(F)(F)F | nt | -7
COCOC(=O)C1(c2ccc(Cl)cc2)CCCC1 | nt | -14
CCOC(=O)C(C)Oc1cc(O)c2c(=O)cc(-c3ccccc3)oc2c1 (stereo unspecified) | 4.2 | nt
CC1Cc2ccccc2N1C(=O)c1ccc(Cl)cc1 (stereo unspecified) | -0.4 | 4
CC(C)(C)C(=O)Nc1nc(NC(=O)C(C)(C)C)nc(-c2ccccc2C(F)(F)F)n1 | 2.7 | nt
Cc1nc2ccccc2c2oc(C(=O)NCCN3CCCCCC3)cc12 | nt | 14
CCCCN(CC)Cc1c(C)[nH]c2ccc(Cl)cc2c1=O | nt | -27
N#CC(C#N)=CNCCN1CCN(C=C(C#N)C#N)CC1 | nt | -21
CN(CCOc1ccc(Cl)cc1)Cc1cc2c(cc1O)OCO2 | nt | 1
Cc1noc(C)c1COC(=O)c1ccccc1SCC(=O)N1CCCC1 | nt | -8
CCc1ccc(C(N)c2cccs2)cc1 (stereo unspecified) | nt | -12
O=C(Nc1ccc2c(c1)OCCO2)c1ccccc1NCC(=O)N1CCc2ccccc21 | nt | 4
O=C1CC(c2nc3ccccc3[nH]2)CN1c1ccccc1 (stereo unspecified) | nt | 10
Cc1ccc(Cc2nn[nH]n2)cc1C | -3.0 | nt
N=C(N)N1CCN(Cc2ccc3c(c2)OCO3)CC1 | 1.1 | -8
O=C(NC(=O)c1c(Cl)cccc1Cl)Oc1ccc(F)cc1F | -0.4 | nt
Nc1nn(-c2cccc(F)n2)cc1-c1ccc(Cl)cc1 | 1.6 | nt
Cn1c(C(=O)N2CCCCCC2)cc2c(=O)[nH]c3ccccc3c21 | 0.4 | -9
CN(C(=O)C1CCCN1S(=O)(=O)c1ccc(Cl)cc1)c1ccccc1 (stereo unspecified) | -1.7 | -7
CC(=O)/C(N=Nc1ccc(F)cc1F)=C(\C)O | -0.9 | nt
CC(=O)Nc1ccc(C(=O)OCC(=O)Nc2cccc(C(F)(F)F)c2)cc1 | -1.1 | -18
COCCn1c(=O)/c(=C\c2ccccc2OC(F)F)s/c1=C(/C#N)C(=O)N1CCOCC1 | nt | -17
CCCCCCCC/C=C\CCCCCCCC(=O)OCC(CO)OC(=O)CCCCCCC/C=C\CCCCCCCC (stereo unspecified) | 2.1 | nt
CNS(=O)(=O)c1cccc(C(=O)NCCc2ccc(S(N)(=O)=O)cc2)c1 | nt | 2
CC(C(=O)N1CCCc2ccccc21)N1C(=O)c2ccccc2C1=O (stereo unspecified) | 0.4 | 15
Cc1ccc2c(c1)C1OCCC1C(c1ccncc1)N2 (stereo unspecified) | 0.2 | 1
Nc1ccc(Oc2ccc3c(c2)C(=O)N(Cc2cccnc2)C3=O)cc1 | nt | 5
O=C(NCCCN1CCCC1=O)c1cccs1 | 2.0 | 7
Cn1c(=O)n(C)c2cc(CNC3CCCCC3)ccc21 | nt | 19
Clc1cccc(Cl)c1CSCc1cc2ccccc2o1 | 3.4 | nt
Cc1cc(C)n(CCc2nnc(N)s2)n1 | -2.1 | 8
Cc1cc2c(cc3c(=O)n(CC(=O)NCc4ccccc4)ncn32)o1 | nt | 32
COc1ccccc1NCCC(=O)Nc1cccc(C)c1C | nt | 10
O=C(CC(C(=O)c1cccs1)c1ccsc1)c1cccs1 (stereo unspecified) | 0.7 | nt
Cc1cccc(NS(=O)(=O)CC23CCC(CC2=O)C3(C)C)c1 (stereo unspecified) | nt | 2
CCn1c(SCC(N)=O)nnc1-c1c[nH]c2ccccc12 | nt | 17
CCOC(=O)c1ccc(Cn2c3ccccc3c3nc4ccccc4nc32)o1 | 12 | nt
CC(C)C(=O)Nc1nnc(-c2ccccc2)s1 | 4.3 | -5
O=C(CSc1nnc(NC2CC2)s1)c1ccc[nH]1 | nt | -9
O=S(=O)(c1ccc(Br)s1)N1CCCC1 | 2.6 | 11
CSc1nnc2ccc(-c3cccnc3)nn12 | nt | -12
COc1ccc(C(=O)CS(C)(=O)=O)cc1 | -0.7 | nt
CCc1ccccc1NC(=O)C(Cc1cccc(OC)c1)c1nn[nH]n1 (stereo unspecified) | 0.1 | 3

Three entries already listed, sorted by the number in Sa helicase inh, low to high:
canonical_smiles | MgrA DNA FP | Sa helicase inh
O=C(CSc1nnc(NC2CC2)s1)c1ccc[nH]1 | nt | -9
CCc1ccccc1NC(=O)C(Cc1cccc(OC)c1)c1nn[nH]n1 (stereo unspecified) | 0.1 | 3
O=S(=O)(c1ccc(Br)s1)N1CCCC1 | 2.6 | 11

Remaining list, next part.
canonical_smiles | MgrA DNA FP | Sa helicase inh
CC(=O)Oc1c[n+]([O-])n(-c2ccccc2)n1 | -6.4 | 6
COc1ccc(C2CC(=O)NC2=O)cc1Br (stereo unspecified) | nt | 10
COC(=O)C1=C(CSc2nccn2C)NC(=O)NC1c1ccc(OC)cc1 (stereo unspecified) | -1.8 | 2
COc1ccc(/C=C2/SC(=S)N(C)C2=O)c(OC)c1 | nt | -29
c1csc(CCNc2ncnc3sc4c(c23)CCC4)c1 | 0.5 | -2
CC(=O)Nc1ccc(-c2nnc(-c3ccccc3)c(-c3ccccc3)n2)cc1 | nt | 1
COc1ccccc1CNC(=O)CSCc1nc(-c2ccccc2F)oc1C | nt | 15
O=C(OCC(=O)N1CCc2ccccc21)c1ccccc1C(=O)N1CCN(c2ccc(F)cc2)CC1 | nt | 9
Cn1c(=O)c(C2=NN=C3NNC(c4ccccc4)C32)c(O)c2ccccc21 (stereo unspecified) | -1.5 | 0
CC(=O)Nc1cccc(C(=O)OCC(=O)Nc2nnc(-c3ccccc3)o2)c1 | nt | -8
O=C(O)CC1(CC(=O)NC2CCN(Cc3ccccc3)CC2)CCCC1 | 1.9 | 1
COCCOC(=O)c1c(C)oc2ccc(NS(=O)(=O)c3c(C)cc(C)cc3C)cc12 | nt | 19
COc1ccccc1NC(=O)N1CCN(C(c2ccccc2)c2ccccc2)CC1 | 0.2 | nt
FC(F)(F)c1cccc(Oc2nccnc2-c2noc(-c3cccs3)n2)c1 | -3.4 | nt
CC1=C(C(=O)O)N2C(=O)[C@@H](NC(=O)[C@H](N)C3=CCC=CC3)C2SC1 (stereo partly specified) | 2.4 | nt
CCN(CC)S(=O)(=O)c1ccc(N2CCCCC2)c(C(=O)O)c1 | nt | -6
CCC(C)NC(=O)C1CCCN(S(=O)(=O)c2ccc(C)cc2)C1 (stereo unspecified) | 3.8 | 8
Nc1nc2c(ncn2COC(CO)CO)c(=O)[nH]1 | 0.3 | nt
CC(=O)NS(=O)(=O)c1ccc(N)cc1 | 6.3&4.2 | nt
COc1ccc(C(=O)n2ccc(-c3oc(C)nc3C)n2)cc1 | 2.0 | nt
O=C(CSCc1ccc(Br)cc1)N1CCCC1 | -2.8 | 2
CC(=O)Nc1ccc(C)c(NS(=O)(=O)c2cc(Cl)ccc2Cl)c1 | -1.0 | nt
NC(=O)c1ccc(-c2ccccc2)o1 | nt | -6
CC1CCN(CCCNC(=O)C2(S(=O)(=O)c3ccc(Cl)cc3)CC2)CC1 | -1.1 | 0
O=C(c1nnc(Cc2ccc(Cl)cc2)o1)N1CCOCC1 | nt | 4
CC1CN(C(=O)COC(=O)c2cccs2)CC(C)O1 (stereo unspecified) | nt | 0
N#CCCn1c(SCc2cc3c(cc2Br)OCO3)nc2ccccc21 | nt | -6
CC12CCC(C1)C(C)(C)C2NS(=O)(=O)c1ccc(C#N)cc1 (stereo unspecified) | -0.6 | nt
NC(CCc1nc2ccccc2[nH]1)c1nc2ccccc2[nH]1 (stereo unspecified) | 0.3 | -4
C#CC1(NC(=O)NC(=O)c2ccccc2Cl)CCCCC1 | nt | -3
COc1ccc(S(=O)(=O)NC2CCCc3ccccc32)cc1OC (stereo unspecified) | 0.8 | 17
O=C(COC(=O)c1cc2ccccc2oc1=O)Nc1ncccn1 | nt | 2
C/C(=N\Nc1c(Cl)cc(Cl)cc1Cl)c1cc(F)ccc1OC(=O)c1ccccc1F | -3.1 | nt
O=C(Nc1ccc(N2C(=O)C3C4C=CC(C4)C3C2=O)cc1)Nc1ccccc1O (stereo unspecified) | nt | 43
COc1cccc(-n2cc(C(=O)Nc3ccc(C)cn3)c3ccccc3c2=O)c1 | nt | -18
CCOc1ccc(C(=O)NN2CCN(C)CC2)cc1 | -0.1 | 2
CC(C)CCNC(=O)C1CCCN(S(=O)(=O)N2CCOCC2)C1 (stereo unspecified) | nt | -30
CC(C)n1nnnc1SCC(=O)c1ccc2c(c1)OCCO2 | 0.0 | -9
CCn1c(=O)c(=O)[nH]c2cc(C(=O)NC3CCCc4ccccc43)ccc21 (stereo unspecified) | nt | -11
CCSc1sc(C(=O)O)c(-c2cccs2)c1C#N | -2.0 | nt
O=C1/C(=C\c2cccs2)SC(=S)N1c1ccccc1 | 1.9 | 7
O=C1CS(=O)(=O)C(c2cccs2)N1CC1CC1 (stereo unspecified) | 1.1 | nt
COc1ccccc1CNC(=O)c1cn(C2CCCC2)c(=O)c2c1c1ccccc1n2C | 0.5 | 13
CCN(C(=O)CSc1ncnc2ccccc12)c1ccccc1 | -1.6 | 3
O=C(Nc1c2c(nn1-c1ccccc1)CSC2)c1ccccc1 | nt | 19
O=C(CN1CCN(c2cccc(Cl)c2)CC1)NC1CCCc2ccccc21 (stereo unspecified) | nt | -5
COc1cn(-c2ccccc2)nc1C(=O)NCc1ccc(C)cc1 | nt | -7
O=c1[nH]nc(-c2cccs2)cc1CC1CCCCC1 | -0.6 | nt
O=C1C2C3C=CC(C3)C2C(=O)N1/N=C/c1ccccc1O (stereo unspecified) | 2.0 | 5
COc1cc(C(=O)NCC(c2cccnc2)N2CCOCC2)cc(OC)c1OC (stereo unspecified) | -2.0 | 7
COC(=O)C1=C(C)N=c2s/c(=C/c3ccc(OC)c(OC)c3)c(=O)n2C1c1ccc(OC(C)=O)cc1 (stereo unspecified) | 5.5 | nt
O=C(Cc1noc2ccccc12)NCc1ccccc1 | nt | 3
O=C1CCCN1c1ccc(S(=O)O)cc1 | -9.6 | 14
Cc1cc(-c2csc(NC3=NCCCCC3)n2)c(C)n1Cc1ccccc1 | nt | 4
CNC(=S)N1CCN(C(c2ccccc2)c2ccccc2)CC1 | -2.5 | 2
O=C(NCCc1ccc(Cl)cc1)c1cc(=O)[nH]c2ccc(Br)cc12 | -2.2 | 2
